Bioassay records (PubChem BioAssay)
Rango complex inh: inhibitors of Rango-importin beta complex formation. Q14974. Rango CFP/YFP FRET sensor + importin beta, 45 min. Potency, µM (series often up to 92.2 µM), for the others: at the highest dose inhibition of complex formation. 340,000 compounds, 0.031% hits; active = rising FRET ratio curve, often small or poorly fitted; inconclusive = mostly compound fluorescence or quenching in the first reads; inactive = flat curves in all reads;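 further: potency means the concentration at half of the fitted maximal effect; 0% = DMSO wells and 100% = buffer wells lacking importin beta; nearly all actives have a fitted effect of over 15% in size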
Target sequence (Q14974 whole entry, looked up): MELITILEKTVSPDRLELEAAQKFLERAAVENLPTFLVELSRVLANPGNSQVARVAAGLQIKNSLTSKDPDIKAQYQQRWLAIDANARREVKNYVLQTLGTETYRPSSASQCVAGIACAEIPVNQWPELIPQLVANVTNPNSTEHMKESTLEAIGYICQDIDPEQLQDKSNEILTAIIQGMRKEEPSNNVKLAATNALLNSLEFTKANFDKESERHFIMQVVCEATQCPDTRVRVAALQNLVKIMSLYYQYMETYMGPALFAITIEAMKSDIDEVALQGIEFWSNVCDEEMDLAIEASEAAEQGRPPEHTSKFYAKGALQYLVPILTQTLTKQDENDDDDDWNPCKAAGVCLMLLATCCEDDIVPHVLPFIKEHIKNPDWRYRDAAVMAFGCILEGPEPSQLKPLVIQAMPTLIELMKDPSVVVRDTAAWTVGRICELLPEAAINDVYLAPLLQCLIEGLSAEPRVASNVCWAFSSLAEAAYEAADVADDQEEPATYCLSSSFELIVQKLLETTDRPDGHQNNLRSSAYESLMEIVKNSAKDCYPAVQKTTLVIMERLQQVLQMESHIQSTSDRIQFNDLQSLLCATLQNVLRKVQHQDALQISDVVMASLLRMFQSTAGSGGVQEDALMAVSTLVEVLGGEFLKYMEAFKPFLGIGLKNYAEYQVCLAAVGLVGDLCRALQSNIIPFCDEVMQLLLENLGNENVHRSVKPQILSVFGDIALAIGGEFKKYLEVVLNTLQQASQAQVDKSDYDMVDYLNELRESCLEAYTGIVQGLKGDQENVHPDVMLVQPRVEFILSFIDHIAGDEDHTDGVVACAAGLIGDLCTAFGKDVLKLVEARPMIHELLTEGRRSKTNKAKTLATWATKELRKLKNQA
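Inhibition scored from the CFP 486 nm/YFP 530 nm FRET ratio 45 min after adding 0.125 microM importin beta to 50 nM Rango biosensor preincubated 5 min with compound (room temperature, PBS with DTT, Tween-20, BSA). No-importin wells as positive control.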
GLA inh pH 4.5: inhibitors of human alpha-galactosidase A at pH 4.5; purified enzyme, 4-MU-alpha-Gal fluorescence, pH 4.5; activity change, negative = inhibition, % at 105 µM; 230,000 tested, under 10 active; AID 1467; inconclusive = small, poorly fitted or top-dose-only inhibition, or a rising curve; inactive = flat fitted curve, though single readings scatter; no compound was filed as active;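 further: 0% = full activity with enzyme and -100% = basal without enzyme; dose as in the result columns while the protocol names 77 µM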
Rango release inh: prevents RanGTP from dissociating the Rango-importin beta complex. O95149+P62826. Biochemical FRET Rango-importin beta, RanGTP-induced dissociation. Potency, µM (doses to about 46.1 µM), for the others: top-dose activity change, negative = inhibition. 340,000 compounds, 0.071% hits. AID 540253; active means falling FRET ratio curve, often poorly fitted, with flat reads before Ran was added; inconclusive means other falling curves, or compound fluorescence or quenching; inactive means flat or rising ratio curve;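 further: potency means the concentration at half of the fitted maximal effect; % of control where 0% means no effect; nearly all actives have a fitted effect of over 45% in size; -100% = wells without RanGTP and RCC1; the record marks most hits as doubtful in a second field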
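Two FRET readings bracket the reaction: one 5 min after compound meets Rango–importin beta, another 45 min after RanGTP-RCC1 (0.6 uM Ran, 0.2 uM RCC1, 2 mM GTP) is added. Only the second defines inhibition.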
miR-21 reporter: miR-21 reporter, rising signal. 340,000 tested, under 10 active. HeLa miR-21 FLuc reporter, luciferase, 48 h. Potency, µM (doses to about 38.3 µM), for the others: at the highest dose reporter change, positive = more light; active = well fitted rising curve with a large enough effect; inconclusive = small, poorly fitted or top-dose-only effect; inactive = no such curve, though single readings can be large or run the other way;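 further: % of control where 0% means no effect; miR-21 action dims this reporter so a rising signal means less miR-21 action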
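HeLa miR-21-FLuc reporter line, endogenous miR-21; 2000 cells/well in DMEM/10% FBS; compound titration up to ~40uM final, 48 h, 37 degree Celsius; luciferase detection reagent, 15 min lysis, CCD luminescence.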
The depositor's hits bear a star; ? = inconclusive; . = not tested or not shown; & = joins results of further samples. Not all compounds are listed; the hit share may differ from the screen's.

SMILES	Rango complex inh	GLA inh pH 4.5	Rango release inh	miR-21 reporter
C=CCn1c(SC2CCOC2=O)nc2sc(CC)cc2c1=O (stereo unspecified)	-3.9%	11.4	0.8%	-19.7%
N#Cc1ccc(C23CC4(C2)[C@H](CN(CC2CCCCC2)[C@@H]4c2ccccc2)C3c2ccc(Cl)nc2)cc1 (stereo partly specified)	-0.2%	2.8&0.4	3.8%	2.4%
Cc1c(C(=O)N(C)C)c2ccc(Cl)cc2n1O	-6.0%	0.5	-0.6%	-16.6%
CCOC(=O)CSc1nc2c(c(=O)[nH]c(=O)n2C)n1CCc1ccccc1	3.8%	1.8	-4.5%	3.5%
CCC(=O)Nc1ccc(NC(=O)CSc2nnnn2-c2ccc(OC)cc2)cc1	2.8%	.	-7.8%	7.4%
CC1(C(=O)O)CCC(C(=O)NNC(=O)c2ccccc2Cl)C1(C)C (stereo unspecified)	-1.6%	.	-2.8%	.
N#CCCN1CCN(S(=O)(=O)c2ccc(S(=O)(=O)N3CCCC3)cc2)CC1	0.0%	-3.4	3.4%	-6.0%
COCCn1cnc2c1c(=O)n(CC(=O)Nc1cc(C)on1)c(=O)n2Cc1ccccc1	-0.1%	7.6	-0.3%	0.6%
CC(=C\C(=O)O)/C(=C/c1ccc(C)o1)C(=O)O	-3.4%	6.7	-0.3%	-10.6%
NC(=S)N/N=C/c1ccccc1[N+](=O)[O-]	-0.4%	7.4	9.0%	0.1%
CS(=O)(=O)N(CC(=O)N1CCCC1)c1ccc(Cl)cc1	-3.4%	.	6.5%	1.2%
O=C(Nc1nnc(C(F)(F)F)s1)c1c(F)cccc1F	-0.7%	-6.3	-11.3%	-7.1%
O=c1/c(=C/c2ccco2)sc2n1CN(c1cccc(Br)c1)CN=2	-2.1%	-6.8	-11.6%	1.3%
CN(C)/C=N/c1ncc(C(=O)c2ccc3ccccc3c2)s1	?	-25.3	?	-27.9%
CCCN1CCC(=NNc2ccc(S(N)(=O)=O)cc2[N+](=O)[O-])CC1	0.1%	10.1	-13.3%	-5.4%
Cc1ccc2cc(C=O)c(N3CCOCC3)nc2c1C	4.0%	.	7.4%	-5.8%
COc1ccc(-n2c(NN)nc3sc4c(c3c2=O)CCCC4)cc1	-2.5%	-5.9	-18.8%	-32.9%
COc1ccc(OC)c2sc(NC(=O)CCSc3ccccc3)nc12	-0.1%	1.9	0.9%	1.5%
CCc1nc(Nc2ccccc2O)c2oc3ccccc3c2n1	-0.9%	.	-25.9%	0.1%
CCOC(=O)C(NC(=O)c1ccc(OC)cc1)(N1CCOCC1)C(F)(F)F (stereo unspecified)	1.0%	-7.0	2.1%	-2.9%
CCC(C)[C@H](NC(=O)CCn1nnc2ccccc2c1=O)C(=O)O (stereo partly specified)	0.9%	5.7	-10.4%	-7.3%
CC(C)NC(=O)C1CCN(c2ccc(S(=O)(=O)N3CCOCC3)cc2Cl)CC1	1.0%	2.4	4.2%	5.5%
Cc1ccccc1-n1ncc2c1CC(C)(C)CC2NC(=O)CN1CCCC1=O (stereo unspecified)	2.6%	.	8.4%	-0.6%
CCN(CC)N=Nc1ccc(S(N)(=O)=O)cc1	2.2%	4.2	8.4%	-16.0%
COc1cccc(NC(=O)CN2C(=O)NC3(CCCc4ccccc43)C2=O)c1 (stereo unspecified)	-0.8%	.	?	.
Next compounds follow.
SMILES	Rango complex inh	GLA inh pH 4.5	Rango release inh	miR-21 reporter
COc1ccc(-n2c(C)c(C)c3c(NCCCN(C)C)ncnc32)cc1	-0.7%	.	-7.0%	1.4%
COc1ccccc1C(=O)Nc1nnc(SCC(=O)Nc2ccc3c(c2)oc2ccccc23)s1	-5.0%	-4.3	25.5%	-58.0%
C=C(C(=O)O)C(CCCCCC)C(=O)O (stereo unspecified)	-0.8%	-3.1	2.5%	-0.4%
O=C(NCc1nnc(SCc2ccccc2)n1-c1ccc(F)cc1)C12CC3CC(CC(C3)C1)C2	-1.2%	-6.3	-3.4%	-0.5%
CC(=O)c1ccc(OCC(=O)NC(=O)NC2CCCCC2)cc1	-0.4%	.	0.4%	-1.5%
COc1ccc(C(C)=O)cc1CSc1nc2cc(C(=O)O)ccc2c(=O)n1Cc1ccccc1	0.6%	-4.1	-4.2%	-2.7%
Cc1cc(=O)oc2cc(OCC(=O)N3CCc4ccccc4C3)ccc12	0.3%	4.4	1.4%	-4.8%
CCC(NC(=O)Nc1ccc(O)cc1)(C(F)(F)F)C(F)(F)F	0.2%	3.6	4.6%	-7.9%
COc1ccc(C(=O)NC(=S)NNC(=O)c2ccc(NC(=O)C(C)C)cc2)cc1	-0.7%	-4.1	18.0%	-1.8%
COc1ccc(OC)c(NC(=O)c2nc(S(=O)(=O)Cc3ccccc3)ncc2Cl)c1	4.1%	.	1.7%	-0.3%
O=C(Nc1ccccc1Br)C1CCN(S(=O)(=O)c2cccs2)CC1	0.2%	.	4.7%	.
COc1ccc(-c2[nH]ncc2CNCC(C)(C)N2CCOCC2)cc1F	0.5%	0.0	-7.2%	3.2%
Cc1cc(C)n(CCSCC(=O)O)n1	6.9%	1.5	5.5%	-0.9%
Cc1ccc2c(c1)sc1ncc(NC(=O)c3ccc(F)cc3)c(=O)n12	.	2.8	.	1.3%
Nc1c(C(=O)Nc2ccccc2)c2nc3ccccc3nc2n1-c1ccc(O)cc1	?	-7.4	?	8.7%
CCCn1nnc(NC(=O)c2ccco2)n1	1.9%	-4.1	8.9%	-14.7%
CCN(CC)S(=O)(=O)c1cc(C(=O)N=c2sccn2C)ccc1OC	2.3%	.	7.1%	-5.3%
CC(C)(C)c1ccc(S(=O)(=O)N2CCSC2)cc1	1.6%	6.4	11.4%	-18.4%
COc1cc(CC(NC(C)=O)C(=O)NC2CCN(C(=O)c3ccc(C)cc3)CC2)cc(OC)c1 (stereo unspecified)	-0.2%	.	0.7%	-1.3%
Cc1ccccc1C(=O)NNC(=O)CN1C(=O)c2ccccc2C1=O	4.3%	-2.4	7.8%	-5.4%
CCOC(=O)C1=CN(Cc2cccc(F)c2)S(=O)(=O)N(C)C1c1ccc(F)c(Cl)c1 (stereo unspecified)	2.7%	.	25.9%	.
O=S(=O)(Nc1ccccc1)c1ccc(Oc2ncc(C(F)(F)F)cc2Cl)cc1	-3.4%	-7.9	-3.0%	23.9%
CCc1nnc(NC(=O)CCC(=O)Nc2ccc(Cl)cc2)s1	3.3%	.	19.0%	-0.5%
CCCOP(=O)(c1ccccc1)c1ccccc1	7.6%	5.6	-20.9%	-3.7%
C/C(=N/NC(=O)C1CC1(c1ccccc1)c1ccccc1)c1ccco1 (stereo unspecified)	0.0%	-1.0	1.5%	1.6%

Rewritten field by field: entries from further up.
> COc1ccccc1C(=O)Nc1nnc(SCC(=O)Nc2ccc3c(c2)oc2ccccc23)s1
  Rango complex inh: -5.0%; GLA inh pH 4.5: -4.3; Rango release inh: 25.5%; miR-21 reporter: -58.0%
> C=C(C(=O)O)C(CCCCCC)C(=O)O (stereo unspecified)
  Rango complex inh: -0.8%; GLA inh pH 4.5: -3.1; Rango release inh: 2.5%; miR-21 reporter: -0.4%

Next results follow:
SMILES	Rango complex inh	GLA inh pH 4.5	Rango release inh	miR-21 reporter
O=C(NCCS(=O)(=O)N1CCN(c2ccc(F)cc2)CC1)c1ccco1	-0.2%	.	-5.1%	.
Cc1cc(NC(=O)C(Cl)c2ccccc2)no1 (stereo unspecified)	2.9%	.	1.1%	7.2%
O=C(CN1C(=O)NC(CCc2ccccc2)C1=O)NC1CC1 (stereo unspecified)	0.0%	7.4	-7.0%	-0.2%
COc1ccc(S(=O)(=O)N2CCN(CC(O)COc3ccc(C#N)cc3)CC2)cc1OC (stereo unspecified)	0.7%	.	-5.0%	-4.8%
CC1C/C(=N/NC(=O)c2cccc(F)c2)c2ccc(O)cc2C1 (stereo unspecified)	-2.7%	3.6	2.0%	-25.0%
O=C(C[n+]1cccc(/C=N/O)c1)N1CCCCCC1	-2.1%	-7.3	6.6%	0.1%
CCOc1ccc(CNC(=O)c2cccc(NC(=O)C3=C(C)OCCS3)c2)cc1	1.6%	.	23.2%	12.7%
CC(=O)Nc1ccc(S(=O)(=O)N2CCCC(C(=O)O)C2)cc1 (stereo unspecified)	-0.7%	-14.7	51.1%	1.5%
O=C(NCCc1nnc2ccc(NCCCN3CCOCC3)nn12)c1ccccc1	2.4%	.	8.9%	-6.4%
COc1cc(/C=N/NC(=O)c2ccc(COc3ccccc3Cl)o2)cc(Br)c1O	1.2%	-0.2	-9.9%	-3.3%
COc1ccccc1-n1c(=O)c2c3c(sc2n2c(SC(C)C)nnc12)CCC3	-1.4%	1.7	12.1%	-8.4%
CCN(CCCNC(=O)c1c(C)cc(=O)oc1C)c1cccc(C)c1	-6.0%	-10.0	7.1%	-4.9%
COCCOc1cc(N2C(=O)CSCC2=O)c(Cl)cc1Cl	-0.5%	4.9	1.6%	-1.4%
O=C(/C(=N\Nc1ccccc1)Sc1nnnn1-c1ccccc1)c1ccccc1	-1.3%	-0.5	0.9%	-8.0%
O=C(c1ccc(OC2CCN(CCc3ccccc3)CC2)cc1)N1CCC(CO)CC1	-1.8%	.	-0.6%	-3.3%
O=C(/C=C/Nc1ccccc1C(F)(F)F)c1ccco1	?	-3.1	?	-50.4%
CN(C1CCCC1)C1CCN(C(=S)Nc2cc(F)cc(F)c2)CC1	-0.5%	-1.4	-4.8%	-2.7%
COC(=O)C1C(c2ccc(N(C)C)cc2)C(C(=O)OC)S(=O)(=O)CS1(=O)=O (stereo unspecified)	1.9%	1.2	14.3%	1.2%
CCCCn1c(N)c(N(CCC(C)C)C(=O)CC2CCCC2)c(=O)[nH]c1=O	0.7%	.	0.7%	.
Cc1c(CCO)c(=O)n2n1CCCC2	-1.1%	.	1.3%	.
COc1ccc(CSc2nnc(-c3ccncc3)n2N)cc1	0.8%	.	-10.5%	-7.1%
Cc1ccc(NCc2nc3ccccc3n2C)cc1C	-1.8%	.	-4.7%	-49.5%
CC(=O)c1cccc(N(CC(=O)Nc2cc(C)cc(C)c2)S(C)(=O)=O)c1	2.4%	-4.4	-3.0%	-13.4%
CCOC(=O)N1CCN(C(=O)CSCC(=O)Nc2nc(-c3ccc4c(c3)OCO4)cs2)CC1	0.2%	9.4	0.1%	-25.6%
CCOc1ccc(S(=O)(=O)NCCc2cn3ccccc3n2)cc1	-3.5%	.	2.8%	-6.8%
(next part)
SMILES	Rango complex inh	GLA inh pH 4.5	Rango release inh	miR-21 reporter
CSc1ncccc1C(=O)OCC(=O)Nc1ccc(S(=O)(=O)N2CCCC2)cc1	1.9%	-4.3	-8.3%	8.6%
N=c1sccn1CC(=O)Nc1ccc(Cl)cc1[N+](=O)[O-]	0.5%	2.6	2.2%	6.4%
COc1ccc(OC)c(S(=O)(=O)Nc2ccccc2O)c1	5.3%	.	-4.4%	.
O[C@@H]1CN(C2CCN(Cc3ccccc3)CC2)CC[C@H]1N1CCCCCC1	?	.	-16.4%	.
COc1ccc(NC(=O)CSc2nccn2C)c([N+](=O)[O-])c1	-0.8%	0.8	-8.5%	-17.0%
CC(=O)N1CCN(c2ccc(NCc3ccccc3)cc2)CC1	-0.6%	-7.6	-4.8%	-10.9%
CN(C)NC1CC(=O)N(c2ccccc2)C1=O (stereo unspecified)	2.4%	5.8	-13.8%	4.7%
Cc1ccccc1CS(=O)(=O)c1cn(CC(=O)N2CCOCC2)c2ccccc12	?	.	1.1%	-5.1%
COc1ccccc1OCC(=O)Nc1ccccc1C(=O)Nc1cccc(C(=O)O)c1	-1.5%	.	0.9%	0.6%
CSCC[C@H](NC(=O)C(C)Oc1ccc(Cl)cc1)c1nc2ccccc2[nH]1 (stereo partly specified)	-1.6%	-9.7	18.8%	5.7%
CN(C(=O)c1ccc(Cl)c(S(=O)(=O)N2CCOCC2)c1)c1ccccc1C(=O)O	1.0%	-7.7	2.6%	-1.9%
CCN(CC)S(=O)(=O)c1cc(C(=O)Nc2cc(C)on2)c(Cl)cc1Cl	-0.7%	.	17.7%	0.9%
COC(=O)c1cc(NC(=O)Nc2cc(OC)ccc2OC)cc(C(=O)OC)c1	3.3%	4.3	2.0%	-2.4%
CCOC(=O)Nc1cc(C(=O)OC)ccc1C	13.2%	-3.1	-1.3%	-3.1%
O=C(O)c1ccccc1NC(=O)c1cc2ccccc2oc1=O	0.6%	.	-11.6%	-13.9%
O=C(NNC(=S)Nc1cccc(C(F)(F)F)c1)c1cccc(Cl)c1	-6.3%	-6.4	-0.2%	22.8%
